Screens deposited in PubChem BioAssay by National Center for Advancing Translational Sciences (NCATS).
GLA inh pH 4.5 = blocks human alpha-galactosidase A at pH 4.5; P06280; purified enzyme, 4-MU-alpha-Gal fluorescence, pH 4.5; activity change, negative = inhibition, % at 105 µM; 230,000 tested, under 10 active; AID 1467; inconclusive = small, poorly fitted or top-dose-only inhibition, or a rising curve; inactive = flat fitted curve, though single readings scatter; no compound was filed as active;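 note: 0% = full activity with enzyme and -100% = basal without enzyme; dose as in the result columns while the protocol names 77 µM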
Target sequence (P06280 whole entry, looked up): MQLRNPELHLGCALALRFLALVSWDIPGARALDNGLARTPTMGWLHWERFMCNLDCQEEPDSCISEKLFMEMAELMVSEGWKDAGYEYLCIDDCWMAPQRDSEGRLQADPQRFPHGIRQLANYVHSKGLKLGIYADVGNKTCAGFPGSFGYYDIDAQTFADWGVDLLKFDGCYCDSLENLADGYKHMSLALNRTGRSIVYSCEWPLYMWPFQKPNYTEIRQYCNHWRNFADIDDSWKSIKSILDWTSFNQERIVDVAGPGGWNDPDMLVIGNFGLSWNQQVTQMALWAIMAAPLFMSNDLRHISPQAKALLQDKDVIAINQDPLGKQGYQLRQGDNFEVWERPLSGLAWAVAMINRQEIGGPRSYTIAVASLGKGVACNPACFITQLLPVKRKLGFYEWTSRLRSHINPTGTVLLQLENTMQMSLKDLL
Rango release inh = prevents RanGTP from dissociating the Rango-importin beta complex; O95149+P62826; Biochemical FRET Rango-importin beta, RanGTP-induced dissociation; Potency, µM (series often up to 46.1 µM), without a hit: at the highest dose activity change, negative = inhibition; 340,000 compounds, 0.071% hits; AID 540253; active means falling FRET ratio curve, often poorly fitted, with flat reads before Ran was added; inconclusive means other falling curves, or compound fluorescence or quenching; inactive means flat or rising ratio curve;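 note: potency is the fitted concentration of half-maximal effect; % of control where 0% means no effect; nearly all actives have a fitted effect of over 45% in size; -100% = wells without RanGTP and RCC1; the record marks most hits as doubtful in a second field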
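Two FRET readings bracket the reaction: one 5 min after compound meets Rango–importin beta, another 45 min after RanGTP-RCC1 (0.6 uM Ran, 0.2 uM RCC1, 2 mM GTP) is added. Only the second defines inhibition.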
miR-21 FLuc = raises the signal of a miR-21 reporter | Potency, µM (doses to about 38.3 µM), without a hit: at the top dose reporter change, positive = more light | 340,000 tested, under 10 active | HeLa miR-21 FLuc reporter, luciferase, 48 h; active = well fitted rising curve with a large enough effect; inconclusive = small, poorly fitted or top-dose-only effect; inactive = no such curve, though single readings can be large or run the other way;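 note: % of control where 0% means no effect; miR-21 action dims this reporter so a rising signal means less miR-21 action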
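HeLa cells endogenously expressing miR-21, stably carrying CMV-driven firefly luciferase with a downstream miR-21 binding site, 2000 cells/well. Titrations up to approximately 40 uM, 48 hours; luciferase luminescence read.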
Rango-impB inh = Rango-importin beta binding inhibition; Q14974; Rango CFP/YFP FRET sensor + importin beta, 45 min; Potency, µM (series often up to 92.2 µM), for inactives: at the highest dose inhibition of complex formation; 340,000 compounds, 0.031% hits; active = rising FRET ratio curve, often small or poorly fitted; inconclusive = mostly compound fluorescence or quenching in the first reads; inactive = flat curves in all reads;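 note: potency is the fitted concentration of half-maximal effect; 0% = DMSO wells and 100% = buffer wells lacking importin beta; nearly all actives have a fitted effect of over 15% in size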
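Inhibition scored from the CFP 486 nm/YFP 530 nm FRET ratio 45 min after adding 0.125 microM importin beta to 50 nM Rango biosensor preincubated 5 min with compound (room temperature, PBS with DTT, Tween-20, BSA). No-importin wells as positive control.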
* hit, by the source's call; ? = inconclusive; . = not tested or not shown. Not all compounds are listed; count on the stated rates, not on these rows.

SMILES | miR-21 FLuc | GLA inh pH 4.5 | Rango-impB inh | Rango release inh
Cc1noc(C)c1CN1C(=O)c2ccccc2C1=O | -1.9% | . | 5.1% | -3.0%
CCC(O)C1CCN(C(=O)c2cc(COc3ccc4ncccc4c3)on2)CC1 (stereo not drawn) | 0.1% | -1.6 | 1.5% | 8.4%
C=CCn1c(COc2ccc(F)cc2)nnc1SCC(=O)N1CC(=O)Nc2ccccc21 | -5.4% | 1.9 | -1.8% | 13.7%
O=[N+]([O-])c1ccc(Oc2cccc3cccnc23)c(Cl)c1 | -10.0% | . | 2.5% | -7.6%
CCOC(=O)/C(C#N)=C/Nc1cc(C(C)(C)C)sc1C(C)=O | -3.0% | 7.2 | 0.1% | -6.1%
C=CCc1cc(C)ccc1OCCOCCC(C(=O)OCC)C(=O)OCC | -2.3% | 4.4 | 4.0% | 8.8%
COC(=O)c1c(C)oc2ccc(N(C(=O)c3ccncc3)S(=O)(=O)c3ccc(C)cc3C)cc12 | -3.1% | -3.4 | -1.1% | -6.1%
CCNC(=O)CSc1ncnc2sccc12 | -5.2% | 1.6 | 3.4% | -18.7%
O=C(N/N=C/c1ccncc1)c1cc(-c2ccc(Br)s2)[nH]n1 | 3.3% | . | 5.9% | -8.0%
Cc1c(Cl)sn(-c2ccc(Cl)cc2)c1=O | ? | 6.9 | 0.9% | -1.2%
O=C1COc2ccc(C(=O)NCc3ccco3)cc2N1 | -4.5% | -1.9 | 1.6% | -12.5%
N=c1sccn1CC(=O)Nc1ccc(S(N)(=O)=O)cc1 | 23.3% | -8.8 | -1.2% | -17.1%
COCC(=O)NC1CC2CCC(C1)N2C(=S)Nc1ccccc1C(=O)OC (stereo not drawn) | -0.6% | 4.0 | 1.0% | 2.2%
COC(=O)[C@H](Cc1ccccc1)NC(=O)N1CCC(C)CC1 | -13.3% | 7.5 | -4.9% | 2.9%
CCCCn1c(N)c(N(CCOC)C(=O)c2ccc(N(C)S(=O)(=O)c3ccc(C)cc3)cc2)c(=O)[nH]c1=O | . | . | -1.9% | -3.6%
O=c1[nH]c2ccc(NS(=O)(=O)c3ccc4ccccc4c3)cc2[nH]1 | 1.8% | -13.5 | -2.0% | -8.8%
CC(C)(C)c1cc(C(=O)NNC(=O)Nc2cccc(Cl)c2)n(Cc2ccccc2)n1 | 23.6% | -4.0 | -2.2% | -3.5%
O=c1c2ccc([N+](=O)[O-])cc2ncn1CCOc1cccc(Br)c1 | -1.9% | -6.3 | -2.0% | -27.8%
O=c1c2ccccc2nc(SCc2ccc(F)cc2Cl)n1CCCN1CCOCC1 | -9.1% | -7.1 | -2.1% | -3.3%
CSc1ccccc1OC1CCN(Cc2ccccc2)CC1 | 9.4% | 9.5 | 4.9% | 0.6%
COc1cc(Br)ccc1C1CC(=O)C(C)C(c2ccc(Br)cc2OC)N1 (stereo not drawn) | -0.5% | . | -0.3% | 0.7%
COC(=O)CSc1cc([N+](=O)[O-])ccc1NC(=O)OC | 1.0% | 4.8 | -0.3% | 4.3%
CN(C)c1nc(-c2ccccn2)nnc1-c1ccccc1 | 17.7% | -0.7 | -0.2% | -0.8%
Cc1cccc(C(=O)OCC(=O)NC(C)CCc2ccccc2)c1 (stereo not drawn) | 0.7% | -1.7 | -3.6% | -13.9%
COc1ccccc1C1=NOC(Cn2c(NCC3CCCO3)nc3c2c(=O)n(C)c(=O)n3C)C1 (stereo not drawn) | -2.0% | -6.0 | -0.9% | 7.7%
Cc1cc(NC(=O)CCC(=O)N(C2CC2)C(C(=O)NC(C)(C)C)c2ccccc2Cl)no1 (stereo not drawn) | -1.6% | . | -1.1% | -9.7%
COc1ccc(CN2CCNC(=O)C2CC(=O)N(C)CCC2CCOCC2)cc1OC (stereo not drawn) | 0.6% | . | 2.3% | -14.1%
COCCn1c(SCC(=O)Nc2ccc3c(c2)CCC3)nc2ccccc2c1=O | -3.4% | -3.3 | -1.8% | 21.1%
COc1ccc(C(=O)NCC(c2cccs2)N2CCOCC2)cc1OC (stereo not drawn) | . | . | 0.4% | 2.9%
COc1cc(C2(O)CCCCC2C)cc(OC)c1OC (stereo not drawn) | -1.9% | -2.4 | 0.7% | 7.0%
O=C(COC(=O)c1cc(Cl)ccc1Cl)Nc1ccc2[nH]c(=O)[nH]c2c1 | . | . | 2.4% | -17.3%
Cc1cccc2sc(N(CCCN(C)C)C(=O)c3nc4ccccc4s3)nc12 | -12.7% | -5.0 | -1.3% | 2.3%
CC(=O)c1ccc(NC(=O)CCS(=O)(=O)c2ccc3c(c2)n(C)c(=O)c(=O)n3C)cc1 | -1.1% | . | -1.1% | 15.0%
O=C(NC1CCCN(Cc2ccc(Cl)cc2)C1)c1ccccc1C(F)(F)F (stereo not drawn) | 0.4% | . | -2.8% | -3.9%
CSc1sc(C(=O)NCC2CC2)c2c1S(=O)(=O)N(C)c1ccccc1-2 | -3.6% | 5.7 | -1.2% | 1.6%
CCCCOC(=O)n1c(SCC(=O)N(C)C)nc2ccccc21 | -27.7% | -0.7 | 6.3% | 7.1%
COc1cccc(NC(=O)C(Sc2nnnn2C)c2ccccc2)c1 (stereo not drawn) | -4.0% | 4.0 | 0.7% | ?
NC(=O)c1nn(CC(=O)Nc2cccc(S(=O)(=O)N3CCCCCC3)c2)c(=O)c2ccccc12 | . | . | 2.0% | -4.0%
CC(CC(=O)Nc1cccc(F)c1)S(=O)(=O)c1ccc2c(c1)NC(=O)CO2 (stereo not drawn) | 6.9% | . | 3.4% | -10.4%
Cc1ccc(NC2CCCN(C(=O)c3ccoc3)C2)cc1C (stereo not drawn) | -1.6% | . | 0.2% | 1.0%
OC(CNCCc1ccccc1)COc1ccc(OCC(O)CNCCc2ccccc2)cc1 (stereo not drawn) | -23.4% | -4.0 | 5.5% | 11.4%
O=C(O)c1ccccc1C(=O)N1CCN(C(=O)c2ccccc2Cl)CC1 | 2.3% | -0.4 | 0.4% | -1.8%
CCn1cc(S(=O)(=O)c2ccc(OC)cc2)c(=O)c2cc(OC)ccc21 | -7.9% | . | 0.2% | -3.3%
Cn1ncc(Cl)c1C(=O)NC(=S)Nc1sc2c(c1C#N)CCCCC2 | -22.1% | 6.5 | -2.0% | -26.5%
Cc1cc(C)nc(N2CCCC(C(=O)Nc3nnc(C(C)C)s3)C2)n1 (stereo not drawn) | 4.0% | -7.6 | . | .
Cc1ccc2cc(CN(CC3CCCO3)C(=O)Nc3ccccc3F)c3nnnn3c2c1 (stereo not drawn) | -42.6% | 4.3 | 0.7% | 7.1%
CC1CCc2nc3ccc(S(=O)(=O)N4CCC(C(=O)NC5CCCC5)CC4)cc3c(C(=O)O)c2C1 (stereo not drawn) | 0.7% | -5.3 | -4.6% | -6.6%
CCN1C(=O)[C@H]2[C@H]3CN=C(SC)N3[C@@](C)(C(=O)OC)[C@H]2C1=O | . | . | -0.9% | -0.7%
COc1ccc(CN(CC2CCC(C(=O)O)CC2)C(=S)Nc2cc(Cl)ccc2OC)cc1 (stereo not drawn) | 0.7% | -5.1 | 0.9% | 7.5%
COc1cccc(CNC(=O)CSc2ccc(-c3ccncc3)nn2)c1 | -1.1% | -8.0 | . | .
O=C(CCN1C(=O)C2C3C=CC(C3)C2C1=O)NCc1cccnc1 (stereo not drawn) | -4.7% | 0.9 | -0.6% | 1.6%
C=CCc1cc(C)ccc1OCCn1ccnc1 | -0.6% | -3.3 | -0.5% | 4.9%
O=C(Nc1nccs1)C1CC(=O)N(c2ccc(Cl)cc2)C1 (stereo not drawn) | -2.1% | -28.2 | -0.7% | 8.1%
Cc1ccc(NC(=S)NC2CCSc3ccccc32)cc1 (stereo not drawn) | 6.2% | . | -5.6% | 1.2%
Cc1ccc(OCC(O)CNCc2ccc(F)cc2)cc1 (stereo not drawn) | -18.3% | . | 1.9% | 12.7%
O=C(/C=C/c1ccccc1)Oc1ccccc1C(=S)N1CCOCC1 | 0.1% | -4.5 | 0.7% | 14.2%
C=CCOC(=O)C(C#N)c1nc2ccccc2nc1N1CCN(Cc2ccccc2)CC1 (stereo not drawn) | -1.7% | -6.0 | ? | ?
COC(=O)C1=C(C(=O)OC)[C@@H]2Nc3ccccc3[C@@]23C[C@@H](C(=O)OC)N(C(=O)c2cccs2)C3=N1 | . | 4.4 | 0.3% | -7.1%
Cc1ccc2ncnc(Nc3ccc(C)c(C)c3)c2c1 | 1.3% | 2.4 | 0.0% | 0.6%
Cc1ccc2c(c1)nnn2C1CCN(CC(=O)NNC(=O)c2ccco2)CC1 | 1.8% | 4.9 | -1.1% | -4.5%

Following part.
SMILES | miR-21 FLuc | GLA inh pH 4.5 | Rango-impB inh | Rango release inh
O=C(NCc1ccccn1)C(=O)NCC(c1ccco1)N1CCOCC1 (stereo not drawn) | 0.1% | 5.8 | 0.2% | 3.6%
COC(C(=O)Nc1ccnn1C1CCN(C(=O)c2cccc(F)c2)CC1)c1ccccc1 (stereo not drawn) | -3.9% | . | 0.8% | -4.8%
CC(=O)/C(=N/Nc1ccccc1)Sc1nnc(CCc2ccccc2)n1-c1ccccc1 | -0.4% | -3.8 | 0.3% | 7.4%
CN(C)S(=O)(=O)c1cc(NC(=O)COC(=O)c2ccc3c(c2)OCO3)ccc1Cl | -0.8% | -1.5 | 7.4% | 0.8%
CN(c1ccccc1)S(=O)(=O)c1ccc(Cl)c(C(=O)NCc2ccccc2CN2CCCC2)c1 | . | . | -1.5% | 2.6%
N#C/C(=N\Nc1ccc(Cl)cc1)C(=N)N1CCCCCC1 | -77.8% | ? | 0.3% | 3.4%
COc1ccc(Br)cc1/C=N/NC(=O)c1cc(OC)c(OC)c(OC)c1 | 20.0% | -4.8 | -1.7% | 0.0%
O=C(NCc1ccco1)c1cccc(S(=O)(=O)N2CCc3ccccc32)c1 | -2.2% | 2.5 | 1.2% | 7.4%
Cc1nc2cc(-c3ccccc3)nn2c(C)c1CCC(=O)NC(C)c1ccc2c(c1)OCCO2 (stereo not drawn) | -1.0% | -26.5 | -5.6% | -14.4%
Cc1ccccc1NC(=O)C1CCN(c2cc(-c3ccccc3)nc3ncnn23)CC1 | -5.6% | -14.4 | 0.4% | 5.0%
CCOC(=O)c1sc2c(c1C)c(=O)c(C(=O)OCC)cn2CC | -8.8% | -18.3 | -1.1% | 5.4%
COc1ccccc1N(CC(=O)NCc1ccco1)S(C)(=O)=O | -2.2% | 5.4 | -0.4% | 9.3%
COc1cc2c(cc1OC)C(C)N(C(=O)c1cc3n(n1)C(C(F)(F)F)CC(c1ccco1)N3)CC2 (stereo not drawn) | -10.7% | -14.9 | -3.3% | 1.1%
COc1ccc(N2CCN(C(=S)Nc3ccc(OC)cc3OC)CC2)cc1 | -3.3% | . | 4.2% | 0.9%
O=C(Nc1ccccc1F)c1cc(C(=O)Nc2ccccc2F)cc([N+](=O)[O-])c1 | 1.0% | . | ? | 2.5%
CC1=C(C(=O)N2CCCCCC2)C2(CCC(C)CC2)OC1=O (stereo not drawn) | -1.1% | -13.3 | 0.1% | -5.0%
Cc1cccc(C)c1NC(=O)CN1C(=O)C(C)Oc2ccccc21 (stereo not drawn) | -5.2% | . | 5.6% | -22.8%
Cc1cc(C(=O)O)ccc1N=Cc1c(O)ccc2ccccc12 | 2.7% | . | ? | ?
Cc1ccccc1N1C(=O)C2ON(c3ccccc3)C(c3ccncc3)C2C1=O (stereo not drawn) | -2.9% | -0.5 | -6.7% | -22.0%
CCOC(=O)c1c(-c2ccccc2)oc2ccc(OCC(=O)NNC(=O)CCC(=O)O)cc12 | 7.6% | . | -1.8% | -0.7%
COc1ccc(NC(=O)CS(=O)c2cccc(C(F)(F)F)c2)cc1 (stereo not drawn) | 1.0% | . | 0.6% | -8.6%
CC1(C)CC(NC(=O)CCC2CCCC2)CC(C)(C)N1 | -5.0% | -0.6 | 3.2% | 2.6%
CCCCOc1cccc(OCCCC)c1C(=O)Nc1cc(C)on1 | -2.1% | -13.9 | -1.8% | 23.5%

Ordered by number of heavy atoms (ascending): part of the list above
SMILES | miR-21 FLuc | GLA inh pH 4.5 | Rango-impB inh | Rango release inh
Cc1cccc(C)c1NC(=O)CN1C(=O)C(C)Oc2ccccc21 (stereo not drawn) | -5.2% | . | 5.6% | -22.8%
CCCCOc1cccc(OCCCC)c1C(=O)Nc1cc(C)on1 | -2.1% | -13.9 | -1.8% | 23.5%
Cc1ccccc1N1C(=O)C2ON(c3ccccc3)C(c3ccncc3)C2C1=O (stereo not drawn) | -2.9% | -0.5 | -6.7% | -22.0%
